Compound activity (PubChem)
ALR H2O2 inh – human ALR oxidase inhibition via reduced H2O2 | purified ALR, DTT oxidation, H2O2 HRP-luminol luminescence | inhibition, % (concentration not given with the values) | hit rate 3.8% among 290,000 | AID 485317;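 active means mean and each replicate at 75% or more; inconclusive means only one of the two met; inactive means neither met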;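 further: stock transfer was 7.5 nL into about 7.5 µL; 0% = neutral wells and 100% = wells with inactivated enzyme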
Target sequence (P55789 whole entry, looked up): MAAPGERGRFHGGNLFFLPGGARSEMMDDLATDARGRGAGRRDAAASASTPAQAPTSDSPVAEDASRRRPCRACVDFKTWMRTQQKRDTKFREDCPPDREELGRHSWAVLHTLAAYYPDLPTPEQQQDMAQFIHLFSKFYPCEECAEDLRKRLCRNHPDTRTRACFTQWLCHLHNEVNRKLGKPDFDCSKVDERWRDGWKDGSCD
MLL AF4-AF9 inh – MLL-AF4/AF9 protein interaction inhibition | AID 651704 | inhibition, % at 10 µM | AlphaScreen, biotin-AF4 peptide binding to FLAG-AF9 | P42568 | hit rate 0.47% among 350,000;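 active means every replicate reaching a set inhibition limit, whatever the replicate mean, cut at about 25% in these data; inconclusive means mean inhibition reaches that limit but some replicates miss it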;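 further: 0% = plate neutral control median and 100% = total signal loss; the record names both 10 and 1 µM as test concentration; the first replicate is given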
Target sequence (P42568 whole entry, looked up): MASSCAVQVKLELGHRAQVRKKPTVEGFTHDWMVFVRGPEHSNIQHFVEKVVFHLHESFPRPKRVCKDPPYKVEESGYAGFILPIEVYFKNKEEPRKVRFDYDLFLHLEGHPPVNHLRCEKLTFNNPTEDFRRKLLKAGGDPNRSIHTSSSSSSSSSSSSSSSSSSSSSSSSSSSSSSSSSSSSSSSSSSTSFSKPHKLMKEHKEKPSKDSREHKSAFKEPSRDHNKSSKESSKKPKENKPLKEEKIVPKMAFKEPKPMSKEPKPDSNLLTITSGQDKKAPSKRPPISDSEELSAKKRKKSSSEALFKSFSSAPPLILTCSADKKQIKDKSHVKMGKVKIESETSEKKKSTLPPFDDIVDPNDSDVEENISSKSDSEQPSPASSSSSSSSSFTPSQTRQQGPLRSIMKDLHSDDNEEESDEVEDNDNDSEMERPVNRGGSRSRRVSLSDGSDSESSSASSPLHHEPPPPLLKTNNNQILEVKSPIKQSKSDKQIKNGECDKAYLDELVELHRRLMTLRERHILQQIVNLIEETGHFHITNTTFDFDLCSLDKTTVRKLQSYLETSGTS
RanGTP-Imp inh – disruptors of Ran-importin-beta complex formation – biochemical, FRET, CFP-Ran, YFP-importin-beta, homogeneous, primary screen. cell-free CFP-Ran/YFP-importin-beta FRET ratio. hit rate 1.1% among 300,000. inhibition, % (no concentration beside the values);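 active means most replicates above 15%; inconclusive means exactly half above 15%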;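 further: 0% = DMSO wells and 100% = Ran loaded with GDP instead of GTP; wells of about 40 µL received 100 nL stock; the first replicate is given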
Ecoli rRNA inh – inhibitors of bacterial rRNA selective over humanized ribosomes. E. coli WT GFP vs humanized-ribosome RFP mutants, fluorescence, 24 h; hits give low values; DMSO median 0, no signal -100. GFP signal change (wild-type ribosome), % (test concentration not listed). hit rate 1.6% among 350,000. AID 720706;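 active means significant combined selectivity score with lowered wild-type GFP, culture density cut under 30%, mutant RFP and density less affected; inactive means any of these conditions unmet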; further: one replicate is shown; some compounds called inactive have numbers as strong as hits
FGF22 binding – FGF22 (human) thermal shift binding. Q9HCT0. recombinant FGF22 thermal shift, SYPRO orange fluorescence; percent of sucrose octasulfate shift, DMSO zero. calls only at 9.99 µM. hit rate 1.5% among 340,000. AID 651658;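 active means melting point raised past a set limit in the mean and every replicate; inconclusive means no clear call; three in four hits are not shown here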
Target sequence (Q9HCT0 whole entry, looked up): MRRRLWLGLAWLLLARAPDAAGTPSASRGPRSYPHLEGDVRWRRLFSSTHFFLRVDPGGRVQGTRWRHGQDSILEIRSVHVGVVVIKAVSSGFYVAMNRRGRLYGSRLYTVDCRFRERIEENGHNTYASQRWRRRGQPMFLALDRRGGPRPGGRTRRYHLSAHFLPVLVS
T cruzi repl – blocks replication of Trypanosoma cruzi; inhibition, % (concentration not given with the values); T. cruzi beta-gal in NIH3T3, luminescence, 90 h; hit rate 1.4% among 300,000;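 active means mean inhibition across valid replicates above about 55%, limit read from the data; inconclusive means mean below that limit but half or more replicates reach it; inactive means mean below it, under half of replicates reach it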;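 further: signal also drops with host cell toxicity which is not excluded here; 0% = plate median of DMSO wells and 100% = zero luminescence signal; higher percent means less beta-gal luminescence so fewer parasites; stock transfer was 50 nL into about 50 µL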
Beta apoptosis – blocks beta cell apoptosis. hit rate 0.8% among 300,000. INS-1E cytokine-induced death, ATP luminescence, 48 h; percent of positive-control rescue, neutral wells zero. protection from apoptosis, % (no concentration beside the values);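 active means all replicates at 75% or more, or half of them and the mean; inconclusive means half reach 75% but not the mean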;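 further: 0% = cytokine-treated negative control wells and 100% = positive control rescue; higher means more ATP so stronger rescue from cytokine killing; wells of about 40 µL received 100 nL stock; the first replicate is given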
Calb FLC – C. albicans growth modulation with fluconazole. C. albicans CaCi-2 (fluconazole-resistant clinical isolate) + fluconazole, Alamar Blue growth, 48 h. growth inhibition, % (test concentration not listed). hit rate 0.57% among 300,000. AID 1979;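 active means most replicates above 75%; inconclusive means exactly half above 75%; inactive means most below 75%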;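 further: all wells also contain fluconazole at 8 µg/ml as a sub-toxic cotreatment; 0% = median of DMSO wells and 100% = median of geldanamycin control wells; wells of about 8 µL received 7.5 nL stock; the first replicate is given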
Ecoli rRNA inh OD600 – recorded beside Ecoli rRNA inh, whose call it bears; OD600 change, %; measured here: OD600 growth;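 optical density of the mix in the first replicate; 0 = DMSO median and -100 = no signal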
Ecoli rRNA inh RFP – further read-out of Ecoli rRNA inh, marked with its call; RFP signal change, %; measured here: RFP humanized mutant strains;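 first replicate; 0 = DMSO median and -100 = no signal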
An asterisk follows results filed as active; i = inactive; u = inconclusive; x = not tested or not shown.

SMILES	ALR H2O2 inh	MLL AF4-AF9 inh	RanGTP-Imp inh	Ecoli rRNA inh	Ecoli rRNA inh OD600	Ecoli rRNA inh RFP	FGF22 binding	T cruzi repl	Beta apoptosis	Calb FLC
CCc1ccc(OCCNC(=O)c2cccs2)cc1	-3	x	2.3	x	x	x	x	0	-6	11
CCCCCCc1cc2cc(-c3nnc(-c4ccccc4O)o3)c(=O)oc2cc1O	14	x	159*	x	x	x	x	8	106*	20
O=C(NCc1ccccc1Cl)C1CCCN(S(=O)(=O)c2cccc3nsnc23)C1 (stereo not drawn)	-8	-2.1	0.1	4	-2	0.6	i	10	5	4
CC(OC(=O)c1ncc(Cl)c(Cl)c1Cl)C(=O)NC1(C#N)CCCCC1 (stereo not drawn)	0	1.9	1.2	-5	-4	2.4	i	0	2	3
O=C1O/C(=C/c2ccccc2)N=C1c1ccccc1	-2	5.8	7.8	12	9	4.9	i	-3	-4	-36
CC(C)(C)NC(=O)CSc1nc2scc(-c3ccccc3)c2c(=O)[nH]1	-2	x	-1.7	x	x	x	x	-6	-4	-6
C/C=C/C(=O)OCC(=O)Nc1cc(-c2cc(C)c(C)cc2C)nn1-c1ccccc1	4	0.9	-0.4	x	x	x	i	-4	-7	55
N/C(=N\OC(=O)COc1ccc([N+](=O)[O-])cc1)c1ccncc1	29	1.0	-4.8	13	2	0.3	i	8	x	7
Cc1oc(-c2cc3c(cc2Cl)OCO3)nc1CN1CCCC(C(=O)N2CCOCC2)C1 (stereo not drawn)	-1	-0.1	-0.2	19	16	3.9	i	53	-3	24
Cc1c(OCC(=O)NC(Cc2ccc(Cl)cc2)C(=O)O)ccc2c3c(c(=O)oc12)CCCC3 (stereo not drawn)	98*	-1.3	7.6	x	x	x	i	14	-15	-9
CC(=O)N(CC(=O)O)c1ccccc1C(=O)O	0	x	8.1	x	x	x	x	-8	3	-3
O=[N+]([O-])c1ccc2nc(-c3ccc(Cl)cc3)n(OCc3ccccc3)c2c1	15	x	-3.3	x	x	x	x	38	18	-43
COC(=O)[C@H](Cc1ccccc1)NC(=O)NCc1ccc(S(N)(=O)=O)cc1	1	x	0.8	x	x	x	x	-19	8	-5
COCCn1c(SCC(=O)Nc2ccc(C(C)=O)cc2)nc2c([nH]c3ccccc32)c1=O	98*	-2.0	x	13	8	0.7	i	0	10	x
NNC(=O)CNC(c1ccccc1)c1cc(Br)ccc1NC(=O)c1cccc(Cl)c1 (stereo not drawn)	-4	-0.3	0.0	2	9	9.2	i	18	0	-2
N#Cc1cc2sc3nnc(-c4ccncc4)n3c2cc1C#N	-10	x	2.4	-1	-1	9.0	x	-1	1	8
Cc1nn(Cc2ccccc2Cl)c(C)c1NC(=O)CSc1n[nH]c(C)c1[N+](=O)[O-]	0	x	1.0	x	x	x	x	-7	0	5
CC1(C)Oc2ccc3ccc(=O)oc3c2/C(=C/N)C1=O	-13	x	1.0	-7	8	-5.7	x	-12	-6	26
Nc1[nH]nc2c1NN(c1ccc(Cl)cc1Cl)N2	1	x	0.3	x	x	x	x	2	-5	53
CCOC(=O)c1c(NC(=O)CSc2nnc(-c3ccncc3)n2Cc2ccco2)sc(C)c1C	-3	x	1.8	x	x	x	x	70*	5	21
O=C(CC1C(=O)NCCN1Cc1cccc(Oc2ccccc2)c1)NCCc1cnccn1 (stereo not drawn)	x	-2.2	-14	11	-2	-2.9	i	0	-1	1
COc1ccc(C(=O)Nc2ccc(S(=O)(=O)N3CCOCC3)cc2)cc1OC	-3	x	-0.7	x	x	x	x	0	-3	-7
CCOc1ccc(NC(=O)C(=S)NC2CCCCC2)cc1	11	-3.7	1.6	7	12	-0.2	x	20	11	-7
Cn1c(=O)cc(Cl)[nH]c1=O	1	-2.3	-1.4	4	9	4.5	i	-4	-2	5
COc1cc(CCC(=O)Nc2ccc(C)c(S(=O)(=O)N(C)C)c2)cc(OC)c1OC	2	x	-0.4	x	x	x	x	-13	2	6
Cc1cc(C)cc(N2C(=O)CC(Cn3nc(C)cc3C)C2=O)c1 (stereo not drawn)	-4	2.9	-2.0	9	4	2.7	i	-11	-7	12
CC(=C\c1ccccc1)/C=C1/SC(=S)N(CCCC(=O)O)C1=O	14	u	5.9	1	-6	15	i	8	1	14
CC(C)CCC[C@@H](C)[C@H]1CC[C@H]2[C@@H]3C(=O)C=C4C[C@@H](O)CC[C@]4(C)[C@H]3CC[C@]12C	x	-2.6	9.3	x	x	x	i	-18	-11	x
O=C(c1c(Cl)cccc1Cl)N1CCN(c2ncccn2)CC1	-4	0.7	0.8	3	7	-2.2	i	-22	0	1
CCOC(=O)C(=Cc1ccc(Br)cc1)C(=O)OCC	53	-2.5	2.0	-10	-4	3.1	i	14	86*	20
COc1ccc(-c2noc(CN(C)CCC3CCCCO3)n2)cc1 (stereo not drawn)	x	-3.3	-1.2	14	2	4.5	i	16	-1	-7
CCN(CC)S(=O)(=O)c1cc(NC(=O)C(C)N2CCN(c3ccccn3)CC2)ccc1C (stereo not drawn)	-15	-2.0	-2.7	-20*	-15*	3.5*	i	24	1	29
Oc1ccc(/C=N/N2CCN(C3c4ccccc4-c4ccccc43)CC2)cc1	x	-2.0	1.0	0	-7	-4.7	i	9	-5	6
Cc1ccc(NC(=O)CN(C)CC(=O)N(CC(C)C)c2c(N)n(CC(C)C)c(=O)[nH]c2=O)c(C)c1	2	4.5	x	4	15	-0.8	i	x	-1	x
COc1ccc(N(C)S(=O)(=O)c2cccc(C(=O)NCC(c3ccco3)N3CCCC3)c2)cc1 (stereo not drawn)	0	1.2	x	0	-5	1.8	i	46	-2	-10
Cc1onc(-c2c(F)cccc2Cl)c1C(N)=S	-3	2.0	-1.5	10	6	-0.9	x	-10	-4	-6

Printed as active in RanGTP-Imp inh (from the list above):
mol	ALR H2O2 inh	MLL AF4-AF9 inh	RanGTP-Imp inh	Ecoli rRNA inh	Ecoli rRNA inh OD600	Ecoli rRNA inh RFP	FGF22 binding
CCCCCCc1cc2cc(-c3nnc(-c4ccccc4O)o3)c(=O)oc2cc1O	14	x	159*	x	x	x	x

Next part:
SMILES	ALR H2O2 inh	MLL AF4-AF9 inh	RanGTP-Imp inh	Ecoli rRNA inh	Ecoli rRNA inh OD600	Ecoli rRNA inh RFP	FGF22 binding	T cruzi repl	Beta apoptosis	Calb FLC
COc1ccc(-c2cc(C(=O)Nc3ccc(C(N)=O)cc3)c3ccccc3n2)cc1OC	-6	0.4	-3.6	-26*	1.1*	-1.0*	i	-2	-1	20
COc1ccc(COC(=O)C2=C(C)NC(=O)NC2c2cccc(Br)c2)cc1 (stereo not drawn)	x	0.1	-4.4	2	-10	7.3	i	3	0	4
COc1ccc(NC(=O)C2CCCN(S(=O)(=O)c3cnc[nH]3)C2)cc1 (stereo not drawn)	42	-0.6	-1.0	1	6	-0.7	i	1	x	-2
CN(CC(=O)Nc1ccccc1Cl)C(=O)c1ccccc1SCC(=O)N1CCCC1	-3	-1.0	u	4	10	-0.9	i	2	1	2
COc1ccc(/C=N/n2c(=O)[nH]c3c([nH]c4ccc(C)cc43)c2=O)cc1CN1CCOCC1	x	-1.5	1.2	3	3	-7.0	i	4	x	18
COc1cccc(C(=O)OCC(=O)NCc2ccc3c(c2)OCO3)c1OC	x	-2.4	x	2	5	6.9	i	x	-1	x
CCn1c2ccccc2c2cc(C#N)c(N)nc21	-20	-3.2	26	-16	-20	-1.0	i	-9	x	1
C[C@@]12CC[C@H]3OC(=O)C=C3C1CC[C@@]13CC(CCC12)[C@](CO)(O[C@H]1O[C@H](CO)[C@@H](O)[C@H](O)[C@H]1O)C3 (stereo partly drawn)	-11	-0.6	8.4	x	x	x	i	-12	1	-4
COc1ccc(CC(=O)Nc2ccc(S(=O)(=O)NC(C)C)cc2)cc1	-2	x	12	x	x	x	x	-40	4	19
COc1cc(/C=C(\C#N)c2nn(CCO)c(N)c2C#N)cc(OC)c1OC	47	-2.4	4.2	-2	8	-2.0	i	-24	1	-3
CC(=O)N1c2ccc(S(=O)(=O)N3CCC(C(=O)Nc4ccccn4)CC3)cc2CC1C (stereo not drawn)	-7	1.7	-3.2	-2	-4	-1.7	i	6	0	7
Cc1cccc(OCC(=O)Nc2ccc(NC(=O)c3ccco3)cc2)c1	x	-0.9	1.4	2	5	0.3	i	-4	x	2
CCOC(=O)CCC(=O)N1CCNC(=O)C1	-5	3.8	-1.8	13	8	-1.8	i	-3	-8	-3
O=C(Nc1ccc2c(c1)OCO2)c1cc2n(n1)C(C(F)(F)F)CC(c1ccccc1)N2 (stereo not drawn)	-2	x	6.3	-2	8	-1.8	x	7	0	-5
C=CCn1c(SCC(=O)Nc2cc(NC(C)=O)ccc2OC)nnc1-c1ccccn1	-23	x	3.2	x	x	x	x	-5	-1	9
Cc1ccc(C(=O)Cc2cc3ccccc3oc2=O)c(C)c1	x	1.9	-4.8	5	1	0.1	i	-6	-2	5
CCCCn1c(N)c(N(CCC(C)C)C(=O)C2CC(=O)N(c3ccc(OC)cc3OC)C2)c(=O)[nH]c1=O (stereo not drawn)	x	2.1	-2.0	10	20	0.2	i	-5	-4	7
CCO[C@H]1OC(C(=O)N2CCOCC2)=C[C@@H](c2ccccc2)[C@@H]1CCCO	1	-7.4	12	7	15	8.1	i	-9	-5	-8
CN(C(=O)COC(=O)c1ccc(Br)o1)c1c(N)n(Cc2ccccc2)c(=O)[nH]c1=O	-5	-0.6	-4.3	9	11	-3.0	i	-5	x	-5
CC(=O)Nc1ccc(S(=O)(=O)N2CCN(CCN3CCOCC3)CC2)cc1Cl	-3	-5.5	-2.1	26	0	1.2	i	1	-1	4
CCOC(=O)c1c(C)[nH]c(C)c1S(=O)(=O)NCCc1cccs1	-16	-2.5	u	0	-3	2.8	i	-2	-4	-7
O=C(O)c1nn2cc(CCO)cnc2c1Cl	-2	-1.7	-5.6	27	21	3.2	i	-11	-3	-6
CC(Sc1nnc(-c2ccccc2)c(-c2ccccc2)n1)C(=O)Nc1ncc(Cl)cc1Cl (stereo not drawn)	x	-1.8	-0.7	x	x	x	i	12	-3	-6
CC/C(=N\NC(=O)c1ccc2c(c1)OCO2)c1ccccc1	u	0.4	-3.3	7	12	-0.6	i	-24	-9	14
CCCCNC(=O)c1cccc2c(=O)c(C)c(-c3ccccc3)oc12	-21	-8.4	-1.5	x	x	x	i	9	-10	-1
CCn1cc(C2=NOC(C(=O)Nc3cc(C)nn3-c3ccccc3)C2)c(C)n1 (stereo not drawn)	-1	x	x	x	x	x	x	-7	-3	-8
O=C(O)c1cc(N/N=C/C(Cl)=C/c2ccccc2)ccc1Cl	x	3.5	-1.1	-24	-31	-6.4	x	-9	-11	-5
Cc1cc(C)[n+](-c2ccc(Oc3ccccc3)c(S(=O)(=O)[O-])c2)[nH]1	-3	-1.7	-3.1	1	1	0.0	i	-4	1	1
COC1OC(COC(=O)c2ccccc2)C(OC(=O)c2ccccc2)C1OC(=O)c1ccccc1 (stereo not drawn)	-5	-1.2	-1.2	18	29	3.6	i	7	3	0

The list is partial, so the mix of outcomes need not match the whole.
